Screening results deposited in PubChem BioAssay by several laboratories.
T cruzi repl: inhibitors of intracellular T. cruzi growth, primary screen, luminescence, NIH3T3 host cells; T. cruzi beta-gal in NIH3T3, 90 h; inhibition, % (no concentration beside the values); 300,000 compounds, 1.4% hits; AID 1885, 2009;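 active means mean inhibition across valid replicates above about 55%, limit read from the data; inconclusive means mean below that limit but half or more replicates reach it; inactive means mean below it, under half of replicates reach it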;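 further: signal also drops with host cell toxicity which is not excluded here; 0% = plate median of DMSO wells and 100% = zero luminescence signal; higher percent means less beta-gal luminescence so fewer parasites; stock transfer was 50 nL into about 50 µL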
Calb FLC: C. albicans growth inhibition with fluconazole, primary screen, CaCi-2 strain, Alamar Blue fluorescence; C. albicans CaCi-2 (fluconazole-resistant clinical isolate) + fluconazole, 48 h; AID 1979, 2009; 300,000 compounds, 0.57% hits; growth inhibition, % (test concentration not listed);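 active means most replicates above 75%; inconclusive means exactly half above 75%; inactive means most below 75%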;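 further: all wells also contain fluconazole at 8 µg/ml as a sub-toxic cotreatment; 0% = median of DMSO wells and 100% = median of geldanamycin control wells; wells of about 8 µL received 7.5 nL stock; the first replicate is given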
Beta apoptosis: inhibitors of cytokine-induced beta cell apoptosis, primary screen, luminescence. INS-1E cytokine-induced death, ATP luminescence, 48 h; percent of positive-control rescue, neutral wells zero. protection from apoptosis, % (concentration not given with the values). 300,000 compounds, 0.8% hits. AID 435005, 2010;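 active means all replicates at 75% or more, or half of them and the mean; inconclusive means half reach 75% but not the mean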;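 further: 0% = cytokine-treated negative control wells and 100% = positive control rescue; higher means more ATP so stronger rescue from cytokine killing; wells of about 40 µL received 100 nL stock; the first replicate is given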
A1 inh: caspase 3/7 activation in MEF A1-2A-BIM cells, primary screen, A1 inhibitor project, cell-based, luminescence, HTS. Caspase-Glo 3/7 luminescence, 3 h; percent of clofoctol response, vehicle zero. caspase activation, % (test concentration not listed). 330,000 compounds, 0.066% hits. AID 2462, 2010;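 active means over half of replicate activation scores above 10%, or exactly half above 10 with the replicate mean above 10; inconclusive means replicate mean below 10 yet half the replicates above 10; inactive means over half of replicates below 10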;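 further: wells of about 30 µL received 50 nL stock; many hits fall short of the cut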
RanGTP-Imp inh: inhibitors of RanGTP-importin-beta interaction, primary screen, biochemical, FRET, CFP-Ran, YFP-importin-beta, homogeneous; inhibition, % (concentration not given with the values); Ran GTPase (GTP-bound) - importin-beta complex; AID 2216, 2009; 300,000 compounds, 1.1% hits; cell-free CFP-Ran/YFP-importin-beta FRET ratio;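 active means most replicates above 15%; inconclusive means exactly half above 15%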;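 further: 0% = DMSO wells and 100% = Ran loaded with GDP instead of GTP; wells of about 40 µL received 100 nL stock; the first replicate is given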
B2AR ag: beta2AR agonists driving receptor internalization, primary screen, cell-based, FAP fluorogen, flow cytometry. response, % (test concentration not listed). Beta-2 adrenergic receptor (Homo sapiens), P07550. Am2.2-beta2AR cells; reference of the scale not given here. 340,000 compounds, 0.43% hits;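 active means response above a set limit, near 3 SD of response in nonfluorescent compounds, cut at about 42% in these data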;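 further: stock transfer was 100 nL into about 11 µL; a reference agonist was the positive control; negative values mostly stem from fluorescent compounds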
Target sequence (P07550 whole entry, looked up): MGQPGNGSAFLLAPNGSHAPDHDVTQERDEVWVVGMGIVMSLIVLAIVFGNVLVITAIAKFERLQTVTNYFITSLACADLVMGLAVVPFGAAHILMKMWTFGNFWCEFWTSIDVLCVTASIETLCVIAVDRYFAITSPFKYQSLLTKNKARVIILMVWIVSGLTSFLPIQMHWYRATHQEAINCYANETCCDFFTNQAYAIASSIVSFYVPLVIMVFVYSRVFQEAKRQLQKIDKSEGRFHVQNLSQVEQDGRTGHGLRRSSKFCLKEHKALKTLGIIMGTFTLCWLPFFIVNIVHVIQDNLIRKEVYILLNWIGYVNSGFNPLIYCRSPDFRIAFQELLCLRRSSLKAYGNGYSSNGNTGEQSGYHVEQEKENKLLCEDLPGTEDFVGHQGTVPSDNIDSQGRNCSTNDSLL
UCH37 DUB inh: inhibitors of human UCH37 deubiquitinase, primary screen, biochemical, Ub-AMC cleavage, fluorescence; purified proteasome/UCH37; inhibition, % (no concentration beside the values); AID 588478, 2011; 330,000 compounds, 0.33% hits;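 active means mean of two replicates above 20%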;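 further: 0% = compound-free wells with enzyme and 100% = wells lacking proteasome; stock transfer was 100 nL into about 20 µL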
Target sequence (Q9Y5K5 whole entry, looked up): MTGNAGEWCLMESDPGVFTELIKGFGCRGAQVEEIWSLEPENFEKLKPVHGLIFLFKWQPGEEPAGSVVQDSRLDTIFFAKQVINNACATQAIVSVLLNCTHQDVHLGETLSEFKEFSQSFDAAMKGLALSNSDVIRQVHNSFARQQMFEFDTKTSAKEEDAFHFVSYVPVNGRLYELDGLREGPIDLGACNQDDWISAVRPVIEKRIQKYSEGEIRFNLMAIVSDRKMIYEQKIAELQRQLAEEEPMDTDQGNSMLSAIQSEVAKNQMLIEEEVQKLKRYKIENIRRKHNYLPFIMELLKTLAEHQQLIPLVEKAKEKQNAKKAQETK
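Schedule: 30 min plus 25 min, room temperature / Material: human UCH37 within purified proteasomes / Technique: AMC fluorescence intensity at 355/460 nm / Buffer or medium: pH 7.4 Tris-HCl (50 mM) with ovalbumin, ATP-MgCl2, DTT / Controls: wells without proteasome as full block, compound-free enzyme plus substrate as uninhibited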
LANA-H2B inh: blockers of LANA interaction with H2A/H2B – biochemical, FP readout, HTS, primary screen. Protein LANA1 (Human herpesvirus 8 type P (isolate GK18)), Q9QR71. cell-free LANA-H2A/H2B peptide, fluorescence polarization. inhibition, % (no concentration beside the values). 320,000 compounds, 0.6% hits. AID 2629, 2010; in the data active means inhibition mostly above about 10%, no sharp cut-off; inactive means mostly below about 6.7%;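 further: stock transfer was 7.5 nL into about 10 µL; 0% = median of vehicle wells and 100% = median of positive control wells; one replicate is shown; the record names a cut of 25% in any replicate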
* hit, by the source's call; ? = inconclusive; . = not tested or not shown; + = active, no number. Not a hit list; about 4.3% have a hit in one of these screens.

Values run as follows: T cruzi repl, Calb FLC, Beta apoptosis, A1 inh, RanGTP-Imp inh, B2AR ag, UCH37 DUB inh, LANA-H2B inh
CCN(CC)CCNc1nc(-n2nc(C)cc2C)nc2sc3c(c12)CC(C)(C)OC3
 : ?, 5, -9, 0.2, 1.9, 19, -5.0, -0.1
Cc1cc(S(=O)(=O)NCc2ccc(S(N)(=O)=O)cc2)c(C)s1
 : -15, 1, -4, -0.4, 0.1, 8, 0.5, -3.2
O=C(NCC1CCCO1)c1cc2c(s1)CCC2 (stereo unspecified)
 : -4, -6, -7, 0.2, -3.6, 5, 3.2, -6.1
CC(=O)N1CCN(CC(=O)Nc2ccccc2C(=O)NCc2ccc(C)cc2)CC1
 : 8, -2, -1, -0.4, 4.0, 9, -0.7, 3.8
COc1ccc(NC(=O)CSc2nnc(C(C)C)n2N)cc1
 : -16, -4, 0, 0.4, 2.3, -10, 4.7, 1.9
Cc1c(C(=O)c2ccccc2)c(=O)n(C)c(=O)n1C
 : -1, -20, -5, 0.0, 1.6, 1, 0.2, -8.1
COc1cccc(OC)c1OCCN1CCCC1
 : -4, -2, ., 0.6, 0.4, 2, 2.1, 3.2
COc1ccc2c(C#N)c3ccccn3c2c1
 : 23, 21, 0, 0.4, 0.2, 0, -45, 4.5
Cc1ccc(NC(=O)c2cc(NC(=O)c3ccccc3C(=O)O)ccc2N2CCCCC2)cc1
 : -3, 57, 3, -0.1, 2.1, -4, 0.2, -1.4
COc1ccc(OC)c(-c2nn(-c3ccccc3)cc2C(=O)N2CCc3ccccc3C2)c1
 : ., ., -7, 0.7, ., 2, 2.9, +
O=C(CN1C(=O)c2cccc3cccc(c23)C1=O)N1CCCCC1
 : -5, -4, -4, 0.0, -2.3, -81, -143, -3.3
CCOC(=O)c1c(NC(=O)CN2CCOCC2)sc(C(=O)NC)c1C
 : -5, ?, 0, -1.8, 0.2, -13, 2.7, 2.0
C=C(C)Cn1c(CN(C)Cc2ccccc2)nc2c1c(=O)n(C)c(=O)n2C
 : -10, -7, 9, 0.6, 0.2, -7, 3.4, 0.6
O=C(NCc1ccccc1)c1cccnc1Sc1ccccc1
 : -14, 8, ., 0.4, ?, 11, 4.2, -0.6
COc1ccc(S(=O)(=O)Nc2ccc3c(c2)N(C(C)=O)CCC3)cc1OC
 : -12, -1, 5, 0.4, 6.3, 1, ., -6.2
O=C(CSc1ncc(-c2ccccc2)[nH]1)Nc1ccccc1
 : -5, 6, -5, 0.7, -1.2, -1, 4.9, -8.2
Cc1ccccc1CNC(=O)Cc1ccccc1[N+](=O)[O-]
 : 1, -38, -7, 1.1, -1.9, 7, 2.9, -0.4
CCOc1ccc(NC(=O)N[C@@H](CCSC)C(=O)OC)cc1
 : -5, 0, -8, 0.6, 3.9, 7, 1.2, -16
CCOc1ccc(CN2CCC(Cc3ccccc3)CC2)cc1
 : 25, -9, -7, 1.5, -0.7, 4, 1.3, -5.1
CCCN1C2CCCC1CC(NC(=O)c1ccccc1F)C2 (stereo unspecified)
 : -18, -5, -4, -1.0, 5.6, 4, 0.7, -2.9
Cc1ccc(C(=O)NCC(=O)OCC(=O)N(CC(C)C)c2c(N)n(Cc3ccccc3)c(=O)[nH]c2=O)cc1
 : -22, -5, 1, -0.1, -0.8, 5, 0.7, .
CC(=O)Nc1ccc(C(=O)OCC(=O)NCc2ccccc2)cc1
 : -8, 4, -2, -0.2, 4.4, 4, 4.7, 0.2
CCOC(=O)c1ccc2nc(CCC(=O)N[C@H](C(=O)OC)C(C)C)c(=O)n(CC)c2c1
 : 4, 35, 0, 0.3, -0.5, 11, -5.4, 2.1
CCOCCn1c(CN2CCN(c3ccc(F)cc3)CC2)nc2c1c(=O)n(C)c(=O)n2C
 : -12, 4, ., 0.5, 5.0, -4, 5.4, -5.7
CCCc1cc(=O)n2[nH]c(-c3ccc(C)cc3)cc2n1
 : ., -11, -7, 0.2, -3.5, 2, -2.2, 1.0
O=C(c1ccccc1)N(Cc1ccc(F)cc1)C1CCS(=O)(=O)C1 (stereo unspecified)
 : -12, -19, 5, -0.5, 3.1, 8, 2.2, -5.2
COc1ccc(CNC(=O)CCSCc2ccccc2Cl)c(OC)c1
 : 1, 3, 0, 0.2, 0.6, 4, 0.4, -0.3
O=C1CNC(=O)/C1=C\c1ccc(O)cc1
 : -16, -1, -1, -0.1, -4.2, 0, 4.4, 3.4
O=C(COc1ccccc1)NC(=S)Nc1cccc(NC(=O)c2ccccc2Cl)c1
 : -13, -3, -4, 1.7, 5.4, 7, 7.0, -2.5
CCN(CC(=O)NCc1ccc(F)cc1)Cc1nc2ccccc2c(=O)[nH]1
 : -2, -26, ., -0.1, -1.7, -14, 2.1, 2.4
CCC(=O)c1cc(F)ccc1OCC(=O)Nc1ccc2c(c1)OCCO2
 : ., ., -2, -0.4, ., -1, 5.4, -0.8
Cc1cc(C)c(NC(=O)CSc2ccc(-c3cccnc3)nn2)c(C)c1
 : -4, 17, -3, 0.0, 2.6, -4, 0.9, -0.8
Cn1c(-[n+]2c(-c3ccccc3)cc(-c3ccccc3)cc2-c2ccccc2)nc2c([N+](=O)[O-])cccc21
 : 8, -5, 26, 0.0, 3.8, -1, -12, -5.4
COc1ccc(CC(=O)NC(C)c2ccc(S(N)(=O)=O)cc2)cc1S(=O)(=O)N1CCOCC1 (stereo unspecified)
 : -3, -5, -6, -0.1, -1.4, -5, 0.4, -0.1
CCOC(=O)c1cccnc1NC(=O)c1ccncc1
 : -9, -5, -1, -0.3, 4.6, -5, -3.5, -1.5
CCN(CC)CC(=O)N1CCCC(N2CCN(c3cccc(C(F)(F)F)c3)CC2)C1 (stereo unspecified)
 : -5, -7, ., 0.4, 3.6, 12, 3.9, -6.8
O=C(Cn1cnc2cc([N+](=O)[O-])ccc2c1=O)NCCc1ccc(Cl)cc1
 : 64*, 15, -4, 0.1, -4.6, -1, -3.0, 2.1
CCCC(=O)N(c1ccc(OCC)cc1)C1C=CS(=O)(=O)C1 (stereo unspecified)
 : 10, 28, -9, 0.4, ?, -11, 0.6, 0.4
CCc1ccccc1-n1c(SCC(=O)Nc2ccc3c(c2)OCCO3)nc2[nH]ncc2c1=O
 : 22, 10, 1, 0.0, ?, -2, 2.9, -2.2
COCCNC(=O)C1CCN(S(=O)(=O)N2CCC3(CC2)OCCO3)CC1
 : -4, 1, -4, 1.7, 1.6, -2, 0.4, 4.6
CCc1ccc(S(=O)(=O)N2c3ccc(C)cc3C3CN(C)CCC32)cc1 (stereo unspecified)
 : ., ., 9, 0.4, ., 10, 2.1, 2.8
CNS(=O)(=O)c1cc(C(=O)NCc2ccco2)ccc1Cl
 : -9, -3, -7, -0.3, 4.4, -6, -2.2, 1.8
O=C(Nc1cccc(S(=O)(=O)N2CCCC2)c1)c1cccc(OC(F)F)c1
 : 0, -6, -2, -1.3, -1.1, -5, 0.3, -9.7
OCCn1c(SCCOc2ccccc2F)nc2ccccc21
 : -11, 1, 1, -0.3, 4.9, -18, 2.7, -1.5
COc1ccc(CCC(=O)NCCc2ccc(Cl)cc2)cc1
 : 3, 3, -3, 0.2, -2.9, 2, 7.8, -3.8
CC(=O)N1CCC(O)(c2ccc3c(c2)OCO3)CC1
 : -7, -1, -2, 0.3, ?, -5, 5.5, 2.2
COc1ccc([C@H]2Cc3cc(O)cc(O)c3C(=O)O2)cc1O
 : ., ., -2, -13, ., 1, -1.5, 5.7
CC1CCN(S(=O)(=O)c2ccc(Cl)cc2)CC1
 : 8, -6, ., -1.2, 1.1, -4, -0.1, 3.8
CCN(CC)S(=O)(=O)c1ccc(C(=O)Oc2cc(C)[nH]c(=O)c2[N+](=O)[O-])cc1
 : -11, -10, 2, 0.3, 4.3, -3, 3.9, -1.2
O=S(=O)(Nc1ncccn1)c1ccc(F)cc1
 : 7, 8, -11, -1.4, -2.3, -7, 0.2, 2.2
O=C(COc1ccccc1[N+](=O)[O-])Nc1cc(Cl)ccc1C(=O)O
 : -1, -30, 1, -2.5, -0.8, 15, 3.5, 2.3
CCCCOc1ccc(C(=O)NCC(=O)NCCCn2nc(C)cc2C)cc1
 : ., ., -4, 0.6, ., -1, -0.9, -14
CCCn1c(N)c(C(=O)CSc2nnc(C3CC3)n2Cc2ccccc2)c(=O)n(C)c1=O
 : ., ., 2, -0.8, ., 4, 1.9, .
COc1cccc(-c2nnc3n2N=C(c2cc(OC)ccc2OC)CS3)c1
 : 13, 25, 7, -0.1, 6.8, 4, 4.5, -3.6
COc1ccc(NC(=O)CSc2nnc(Cc3cccn3C)n2-c2ccc(OC)cc2)cc1
 : -10, 4, 4, -0.4, 0.9, -12, 2.9, 4.9
Cc1cccc(C(=O)NCC(=O)NC(C)c2ccc(-n3ccnc3)cc2)c1 (stereo unspecified)
 : -3, ., -4, -0.4, -0.6, 3, 0.9, -5.0
CC(C)Cn1cc(C(=O)NC2CCN(Cc3ccccc3)CC2)c2c3ccccc3n(C)c2c1=O
 : 9, -3, 4, -0.1, 1.6, ., ., -0.1
C=CCNC(=O)c1onc(CSc2ccc(Cl)cc2)c1C(=O)O
 : -24, -4, -5, -2.4, 4.2, -1, 2.1, 0.4
COC(=O)C(NC(=O)CCC(=O)NC(C(=O)OC)c1ccccc1)c1ccccc1 (stereo unspecified)
 : -15, -9, ., 0.1, 7.0, -5, 1.3, 2.0
CCOC(=O)NC(NC(=S)Nc1ccccc1OC)C(Cl)(Cl)Cl (stereo unspecified)
 : -1, -6, ., -1.2, 5.6, 8, 0.4, -4.7
S=C(NCCN1CCOCC1)Nc1ccc(Cl)cc1Cl
 : 6, -10, 1, -0.1, 1.9, -4, 3.9, 0.5
